# Bioassay records (PubChem BioAssay)
# CDC25B-CDK2 inh = human CDC25B-CDK2/CyclinA binding inhibition; P30305+P24941; 94,000 compounds, 0.72% hits; z-score (no concentration beside the values); HTRF CDC25B-CDK2/CyclinA binding, anti-His/anti-Flag; stronger effect = higher value;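 note: score is relative to mean and SD of negative controls; strong numbers were not always called active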
# TAR Tat displ = HIV-1 TAR-Tat binding disruption; HIV-1 TAR RNA, Tat peptide displacement FRET; stronger effect = higher value; z-score (test concentration not listed); 100,000 compounds, 0.6% hits; AID 1259389;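 note: score is relative to mean and SD of negative controls; some compounds called inactive have numbers as strong as hits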
# The depositor's hits bear a star; x = no result given.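 Rule for the calls: active = z-score from 3 up in half or more of its runs; inactive = the rest.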 Compounds as they come. Share with any hit: about 0.87%.
SMILES,CDC25B-CDK2 inh,TAR Tat displ
CN(CC(=O)NCc1ccc(F)cc1)S(=O)(=O)c1cccs1,-2,x
Cc1ccc2c(CC(=O)O)cc(=O)oc2c1,-0.62,x
O=C(CN1C(=O)c2ccccc2Sc2ncccc21)NCc1ccccn1,x,-3
COc1cc(C2Oc3c(OC)cccc3C3CC(c4cc(C)ccc4O)=NN32)ccc1O (configuration not stated),-1.8,-0.93
CCOc1ccc(C2CC(=O)N3CN(c4ccc(CCO)cc4)CSC3=C2C#N)cc1 (configuration not stated),7.2*,-1.6
c1ccc2c(c1)nnn2Cc1nnc2sc(-c3ccc4c(c3)OCCO4)nn12,-2.7,2.7
O=S(=O)(c1ccccc1F)N1CCN(c2nc3cc(Br)ccc3n3cccc23)CC1,-2.1,2.2
CCCn1c(COc2cccc(OC)c2)nc2ccccc21,-1.5,0.67
Cc1nn(-c2ccc3nnc(C)n3n2)c2c1C(c1ccccc1OCc1ccccc1Cl)CC(=O)N2 (configuration not stated),x,1.7
Cn1c(=O)c2cn(Cc3ccc(Cl)cc3)cc2n(C)c1=O,-0.74,x
O=C1CCSc2c1cccc2C(=O)N1CCN(c2ncccn2)CC1,x,0.01
CC(C)(C)Nc1nc(C(N)=O)nc(N2CCOCC2)n1,0.76,1.4
COc1ccc(OC)c(CNc2nc(N(C)C)nc3c2cnn3C)c1,x,0.89
COc1ccc(-c2cc(C)no2)cc1S(=O)(=O)N1CCOc2ccc(C)cc21,x,0.76
COC(=O)c1ccc(Cl)cc1NC(=O)Nc1nnc(N(C)C2CCCCC2)s1,-0.5,0.54
O=C(O)c1cc(S(=O)(=O)N2CCSCC2)ccc1Cl,x,0.95
C=CCn1c(=O)c2c(nc3n2CCN3c2ccc(OC)cc2)n(C)c1=O,-2,0.7
COc1ccc(Cc2nnc3n2N=C(c2ccc(F)cc2)CS3)cc1OC,x,0.08
Cc1nn(CC(=O)NCCc2cccs2)c(=O)c2c(-n3cccc3)n(-c3ccc(Cl)cc3)nc12,x,1
CCCSc1nc2c(c(=O)[nH]1)C(c1ccc(C(C)C)cc1)C(C(=O)OC)=C(C)N2 (configuration not stated),-1.2,2.1
O=C(c1noc2c1CCc1sccc1-2)N1CCN(c2ccccc2)CC1,x,0.94
C=CCn1c(CCNC(=O)C2CCCCC2)nc2ccccc21,-2.1,-0.13
O=C(CN1C(=O)c2cccnc2Sc2ccccc21)Nc1cc(F)ccc1F,x,0.71
CC(C)NC(=O)c1nn(C)c2c1CS(=O)(=O)c1ccccc1-2,0.52,0.24

# Sorted by number of heavy atoms (descending): some entries from above
SMILES,CDC25B-CDK2 inh,TAR Tat displ
COc1ccc(Cc2nnc3n2N=C(c2ccc(F)cc2)CS3)cc1OC,x,0.08
CN(CC(=O)NCc1ccc(F)cc1)S(=O)(=O)c1cccs1,-2,x
Cn1c(=O)c2cn(Cc3ccc(Cl)cc3)cc2n(C)c1=O,-0.74,x

# Carrying on:
SMILES,CDC25B-CDK2 inh,TAR Tat displ
O=C(NCCc1cccs1)C1CCN(c2ccc(-c3cccs3)nn2)CC1,x,0.23
CC1=C(c2ccc(C(C)C)cc2)S(=O)(=O)N=C1N1CCN(c2ccc(F)cc2)CC1,0.89,0.46
Nc1c2c(nc3cccc(F)c13)OCCC2,-1.1,x
N#Cc1nc(-c2ccc(COc3ccccc3)o2)oc1N1CCc2ccccc2C1,-1.1,-0.61
Cn1c(COc2ccccc2)nnc1SCc1cc(=O)c2cc(Cl)ccc2[nH]1,x,-1.5
COc1cc(C(C)=O)ccc1CN1CCOCC1,-1.8,x
O=C1CC2(CCc3ccccc32)C(=O)N1CN1CCSCC1 (configuration not stated),-0.81,x
Cc1nc(-c2cccs2)c(CC(=O)NCCc2cccs2)s1,-1.3,-1.5
O=C(Oc1ccc(F)cc1)c1cc(-c2cccs2)on1,-0.36,0.83
CCOC(=O)N1CCN(C(=O)C2CCN(C(=O)c3cc4sccc4n3C)CC2)CC1,-1.9,1
O=c1c(Cl)c(N2CCN(c3ccccn3)CC2)cnn1-c1nc2ccccc2s1,-1.7,0.71
CCOc1ccc(Nc2nc(N)c([N+](=O)[O-])c(Nc3ccc(OC)cc3)n2)cc1,x,0.78
COc1cc2ccc(=O)oc2cc1OC,-0.66,x
CC1=C(c2ccc(C(C)C)cc2)S(=O)(=O)NC1=NC(C)c1ccc2c(c1)OCCO2 (configuration not stated),-12,1.3
CCOC(=O)c1c(-c2ccc(Cl)cc2)nn2c1NCN(Cc1ccc3c(c1)OCO3)C2,-1.1,0.38
CCc1ccc(-n2c(C)nc3c(cnn3-c3ccc(F)cc3)c2=O)cc1,0.39,x
Cc1ccc(-n2c(-c3cccnc3)n[nH]c2=S)c(C)c1,1,x
COc1ccc(C(=O)Nc2cccc(C(=O)OCC(=O)c3ccc(Br)cc3)c2)cc1OC,-5.8,x
CC(C)[C@H](N)c1nnc(SCC(=O)c2ccc(Cl)cc2)o1,-0.99,0.46
CCCCCNC(=O)CN1c2ccc(Br)cc2-c2ccccc2S1(=O)=O,-0.12,1.3
CCOC(=O)C1CCCN(C2=NS(=O)(=O)C(c3ccc(F)cc3)=C2C)C1 (configuration not stated),x,-0.7
O=C(NCC1CCCO1)C(=O)Nc1ccccc1 (configuration not stated),-1.3,-0.01
Cc1nc(C)c(C(=O)Nc2nnc(CC(C)C)s2)s1,-0.08,-0.55
CCCc1cc(=O)n2nc(N(C)CC(=O)NC)sc2n1,-1.4,2.2
O=C(Nc1ccc2c(c1)OCCO2)c1noc2c1CSc1ccccc1-2,-1.9,0.86
Cc1ccc2nc(C(=O)O)cc(N3CCOCC3)c2c1,-0.52,0.59
CCOC(=O)c1c(C)oc2cc3c(C(=O)OCC)c(C)oc3cc12,-2.3,x
CCC(C(=O)NCCCN1CC(C)CC(C)C1)n1nc(C)c2sc3ccccc3c2c1=O (configuration not stated),-0.86,3.1
CN(C)CCN(C(=O)CCOc1ccccc1)c1nc2ccc(Br)cc2s1,x,1.6
CCN1C(=O)CC(N2CCC(C(N)=O)(N3CCCCC3)CC2)C1=O (configuration not stated),-1.6,x
N#Cc1cc2c(nc1SCC(=O)Nc1ccccc1Cl)CCCC2,-0.29,0.37
O=C1CCSc2ccc(S(=O)(=O)Nc3ccccc3Cl)cc2N1,x,1.8
O=S(=O)(CC1CC1(Cl)Cl)c1ccccc1 (configuration not stated),-3.3,x
Cc1ccccc1N1CC(O)=C(c2nc3ccccc3[nH]2)C1=N,-1.4,0.6
COCCCN[C@H]1CS(=O)(=O)C[C@@H]1S(=O)(=O)c1ccc(C)cc1,-2.3,-3.4
CCCc1ccc(C(=O)CC2(O)C(=O)Nc3ccc(C)cc32)cc1 (configuration not stated),x,0.93
O=S(=O)(CCN(C1CCCCC1)S(=O)(=O)c1ccccc1)N1CCNCC1,x,2.1
c1ccc(Nc2ncnc3cc(-c4ccccc4)sc23)cc1,-0.91,x
COc1cccc(C2C3=C(CC(C)(C)CC3=O)Nc3ncnn32)c1 (configuration not stated),-1.4,0.6
COc1ccc(CNC(=O)Nc2ccccc2Cl)cc1,-0.38,x
COc1ccc(NC(=O)CSc2nnc3ccc4ccccc4n23)c(OC)c1,-1.4,1.5
O=c1oc2ccccc2c2c1ncn2CC1CCCCC1,3.1,-0.69
O=C(NC(=O)c1c(F)cccc1Cl)C(=O)Nc1ccc(Cl)cc1,-1.4,x
CCc1ccc(S(=O)(=O)N2CCc3cc4cccc(C)c4nc32)s1,-1.2,-0.22
Cc1cc(S(=O)(=O)[C@H]2CS(=O)(=O)C[C@@H]2NCc2ccc(Cl)cc2)ccc1F,-2.3,-1.2
COC(=O)Cc1c(C)nc2nc(-c3ccco3)[nH]n2c1=O,-0.02,1.8
Cc1cc(=O)n2[nH]cc(C(=O)O)c2n1,x,1.5
Cn1c(Cn2c(=O)sc3ccccc32)nnc1SCC(=O)Nc1cccc(F)c1,-1.6,x

# Copied from the list:
# For TAR Tat displ, Cc1nc(-c2cccs2)c(CC(=O)NCCc2cccs2)s1 has -1.5
# For CDC25B-CDK2 inh, O=C(NC(=O)c1c(F)cccc1Cl)C(=O)Nc1ccc(Cl)cc1 has -1.4
# For TAR Tat displ, N#Cc1cc2c(nc1SCC(=O)Nc1ccccc1Cl)CCCC2 has 0.37
# For TAR Tat displ, O=c1c(Cl)c(N2CCN(c3ccccn3)CC2)cnn1-c1nc2ccccc2s1 has 0.71
# For CDC25B-CDK2 inh, O=S(=O)(c1ccccc1F)N1CCN(c2nc3cc(Br)ccc3n3cccc23)CC1 has -2.1

# The list continues.
SMILES,CDC25B-CDK2 inh,TAR Tat displ
COc1cc2nc(NC(=O)c3ccco3)sc(=O)c2cc1OC,-0.33,x
CCN(CC)CCNc1cc(N2CCOCC2)c2noc3c2c1C(=O)c1ccccc1-3,-4.9,6.5*
Cc1ccccc1-n1nnc(-c2nc(-c3ccncc3)no2)c1N,x,-0.72
CC(C)c1ccc(OCCCN2CCCC2)cc1,0.36,x
CCCc1nc(SC)ncc1C(=O)Nc1nnc(SCC)s1,x,-0.27
CCC(C(=O)OCc1cc(=O)n2c3c(sc2n1)CCCC3)c1ccccc1 (configuration not stated),x,0.64
S=C1SCN(Cc2ccccc2)CN1Cc1ccccc1,x,0.54
COc1cc(CNc2ccc3[nH]c(=O)[nH]c3c2)cc(Br)c1OC,8.7*,-0.05
CC(C)n1c(C(O)c2cccc3ccccc23)nc2ccccc21 (configuration not stated),-0.11,-0.06
CCOC(=O)C1=C(C)Nc2nc(SCC(C)C)nn2C1c1ccc(OC)cc1 (configuration not stated),-1.4,-0.85
COc1ccc(-c2nc(Cn3nc(-c4ccc(OC)cc4)c4c(C)onc4c3=O)c(C)o2)cc1,x,-0.55
CCOc1ccc(/C=C/c2nc(C#N)c(NCCCN3CCOCC3)o2)cc1,-3.6,0.88
CCC(C)(C)NC(=O)CCS(=O)(=O)c1ccc2c(c1)NC(=O)CO2,x,1.7
CC(=O)Nc1ccc(NC(=O)CSc2nnnn2-c2ccccc2)cc1,0.86,x
COc1ccc(S(=O)(=O)c2c[nH]c3cc(F)ccc3c2=O)cc1,0.19,0.66
COc1ccc2sc(N(CCN(C)C)C(=O)c3ccc4ncsc4c3)nc2c1,x,1
CC1(C)CC(=O)C2=C(C1)Nc1[nH]c(=O)[nH]c(=O)c1C2c1cccs1 (configuration not stated),-1.4,x
CC(C)CC(=O)Nc1ccccc1SCc1cc(=O)n2c3c(sc2n1)CCCC3,x,-0.54
C#CCOc1nc(C)nc2c1oc1ccccc12,x,1
Cc1ccc(C2CC(=O)C=C(NC3Cc4ccccc4C3)C2)cc1 (configuration not stated),-0.16,2
Cc1sc2ncn3c(SCC(=O)Nc4ccc5c(c4)CCC5)nnc3c2c1C,-1.2,0.85
Cn1c(Cn2c(=O)sc3ccccc32)nnc1SCC(=O)Nc1cccc(Cl)c1,-1.8,x
COc1ccc(-c2cc(C)no2)cc1S(=O)(=O)NCc1ccc(OC(C)C)cc1,x,0.29
CCC(Sc1nc2c(c(=O)[nH]1)CCC2)C(=O)NC1CCCCC1 (configuration not stated),-1.4,2.8
CCn1cc(S(=O)(=O)c2cc(C)cc(C)c2)c(=O)c2cc(F)c(N3CCOCC3)cc21,x,-1.2
Cc1cc(C)c2c(-n3cccc3)c(C(=O)N3CCN(c4ccccn4)CC3)sc2n1,-1.5,0.32
CCOC(=O)c1nc(N(Cc2cccs2)C2CCCC2)c2ccccc2n1,x,0.14
CCS(=O)(=O)N1CCN(C(=O)c2cc(-c3ccco3)[nH]n2)CC1,x,-9.5
CCc1nnc(SCc2cccc(F)c2)c2cc3sccc3n12,x,2.4
COCCn1c2c(c(=O)[nH]c1=O)C(c1ccccc1OC)C1=C(N2)c2ccccc2C1=O (configuration not stated),-0.7,-0.67
CC(C)c1ccc(S(=O)(=O)N2CCCC2c2cccs2)cc1 (configuration not stated),-0.83,1
CCOC(=O)c1c(NC(=O)c2onc(C)c2Cl)sc(C)c1C,-0.97,1.1
O=S(=O)(Cc1ccccc1)NC(c1ccccc1)c1nnc(-c2ccccc2)o1 (configuration not stated),x,0.65
O=C(NCCc1ccccc1)Nc1nc2c(s1)CCCCCC2,x,0.32
CC(C)CCCNc1nc(N2CCOCC2)nc(N2CCOCC2)n1,-0.72,0.21
Cc1cccc(N(Cc2ccccc2F)C2=NC3CS(=O)(=O)CC3S2)c1 (configuration not stated),-2,0.94
CN(C)c1ccc(C2Nc3ccccc3S(=O)(=O)N2Cc2ccccc2)cc1Br (configuration not stated),-1.9,x
O=C(/C=C/c1ccccc1)OCC1CCCN2CCCCC12 (configuration not stated),-1.4,x
C=C1C[C@@]23CC[C@H]4[C@@](C)(CCC[C@@]4(C)C(=O)OC4OC(CO)C(O)C(O)C4O)[C@@H]2CC[C@]1(OC1OC(CO)C(O)C(O)C1OC1OC(CO)C(O)C(O)C1O)C3 (some centres not stated),-0.09,x
CCCN(CCC)c1nn2c(=O)c(C(=O)NCc3cccnc3)cnc2s1,x,0.89
Cc1cccc(-c2nc(Cn3c(=O)n(CC4CCCO4)c(=O)c4ccccc43)c(C)o2)c1 (configuration not stated),-2.5,0.8
C=CCN1C(=O)C(O)(CC(=O)c2ccc(Cl)cc2)c2ccccc21 (configuration not stated),1.4,-0.28
COCCOC(=O)C1=C(C)N=C2SCCC(=O)N2C1c1ccc(OCc2ccccc2)c(OC)c1 (configuration not stated),-0.29,3.8
CN(CCO)C(=O)c1cccc2c1-c1ccccc1C2=O,0.33,0.06
CCOC(=O)c1noc2ncnc(NC3CCCCC3)c12,x,1.2
CCOc1ccc(/C=C/c2nc(C#N)c(N(C)Cc3ccccc3)o2)cc1,-1.2,-0.43

# Of the compounds above, these contain a COOH group:
SMILES,CDC25B-CDK2 inh,TAR Tat displ
Cc1ccc2c(CC(=O)O)cc(=O)oc2c1,-0.62,x
O=C(O)c1cc(S(=O)(=O)N2CCSCC2)ccc1Cl,x,0.95
Cc1ccc2nc(C(=O)O)cc(N3CCOCC3)c2c1,-0.52,0.59
Cc1cc(=O)n2[nH]cc(C(=O)O)c2n1,x,1.5
